VACV Venus inh – vaccinia inhibition (Venus reporter). Potency, µM (top dose mostly 36.5 µM), without a hit: at the top dose activity change, negative = inhibition, actives largely listed as inhibitors. actives 0.46% (n = 330,000). Vaccinia virus Venus reporter expression, fluorescence; active means well fitted inhibition curve with a large enough effect; inconclusive means small, poorly fitted or top-dose-only effect; inactive means no such curve, though single readings can be large or run the other way; tested in A549 cells; also: nearly all actives have a fitted effect of over 30% in size; inactives centre near -10
VACV mCherry inh – inhibitors of vaccinia virus infection (mCherry reporter signal); Vaccinia virus mCherry reporter infection, fluorescence; about a quarter of the inactives have no number; Potency, µM (series often up to 36.5 µM), for the others: at the top dose activity change, negative = inhibition, most hits filed as inhibitors; actives 0.63% (n = 310,000); AID 720579; active = well fitted inhibition curve with a large enough effect; inconclusive = small, poorly fitted or top-dose-only effect; inactive = no such curve, though single readings can be large or run the other way; tested in A549 cells; also: nearly all actives have a fitted effect of over 35% in size; inactives centre near -10
An asterisk follows results filed as active; i = inactive; ? = inconclusive; · = no result given; & = joins results of further samples; [ ] = another dose, or the depositor's remark. % is scaled to controls: 0 for no effect and ±100 for the full control effect; potency is read from the fitted curve at half-maximal effect.

SMILES	VACV Venus inh	VACV mCherry inh
N#C/C(=C\c1c(Cl)cccc1Cl)c1nn(-c2ccccc2)c(-n2cccc2)c1C#N	-0.8%	i
COC(=O)CNC(=O)CN1C(=O)N(c2ccc(Cl)cc2)C(N(O)C(=O)Nc2ccc(Cl)cc2)C1(C)C (stereo not drawn)	-16.2%	·
CCNC(=O)COC(=O)CCC(=O)c1ccc(F)cc1	-8.1%	i
COc1ccc(CCCc2nnc(SCC(=O)Nc3ccc(F)cc3)o2)cc1C	7.4%	-6.5%
NC(=O)c1cnn(-c2ccc3ccccc3c2)c1N	-8.6%	-12.3%
CC1=C(C(=O)OCc2ccccc2)C(c2ccc(-c3ccccc3)cc2)NC(=O)N1CCCCCC(=O)O (stereo not drawn)	-3.5%	-7.7%
Cc1ccc(S(=O)(=O)NC2=NCN(C3CCN(Cc4ccccc4)CC3)CN2)cc1	-16.6%	i
CC(C)(C)S(=O)(=O)/C(C#N)=C/Nc1ccccn1	-5.5%	-14.4%
CN(Cc1ccccc1)S(=O)(=O)c1ccc2c(c1)NC(=O)CC(=O)N2	-12.9%	i
COCCCNC(=O)C1CCC(CNS(=O)(=O)c2ccc3c(c2)CC(C)N3C(=O)C2CC2)CC1 (stereo not drawn)	-7.0%	-10.3%
CCCCOCCCNC(=O)CC(C)c1ccccc1 (stereo not drawn)	-12.2%	-9.5%
CC(C)(C)c1ccc(C(=O)Nc2ccc3c(c2)CCCN3C(=O)c2cccs2)cc1	-5.6%	-28.5%
C/C(CCc1ccccc1)=N/NC(=O)C(=O)NCc1ccccc1	-11.7%	i
COc1cccc(C(=O)NNC(=O)c2ccccc2-n2cccc2)c1	-14.8%	-17.4%
CCOc1ccccc1N1CCN(Cc2cn[nH]c2-c2ccc(F)cc2)CC1	12.8%	?
COc1ccccc1N1CCN(/N=C\c2ccc(C)o2)CC1	-1.7%	-21.7%
O=C(Cn1c(=O)oc2ccccc21)Nc1ccccc1C(F)(F)F	-19.6%	-6.0%
COc1ccccc1NC(=O)CN(C)S(=O)(=O)c1ccc2c(c1)CCC(=O)N2	-12.2%	-13.8%
COc1ccc(S(=O)(=O)N(CCc2ccccc2)CC(=O)NCc2ccccc2)cc1	-12.5%	-25.4%
COc1ccc(/C=C/c2nc(C#N)c(N3CCCCCC3)o2)cc1OC	-13.9%	-9.1%
CN(CC(=O)Nc1cccc(F)c1)C(=O)C1=COCCO1	-3.9%	-15.7%
Fc1ccc(CSc2nnc(CN3CCOCC3)n2-c2ccccc2)c(Cl)c1	-19.7%	-29.6%
COc1cccc(CNC(=O)[C@@H]2CCCN2C(=O)[C@@H]2CCCN2C(=O)c2ccc(Cl)cc2)c1	-6.4%	36.2%[activator]
C#Cc1ccc(NC(=O)C2(C)CCN2C(=O)C/C=C/c2ccccc2)cc1 (stereo not drawn)	-8.5%	41.2%[activator]

Single entries from the list.
Value for COc1cccc(C(=O)NNC(=O)c2ccccc2-n2cccc2)c1 under VACV Venus inh: -14.8%
Value for COc1ccccc1NC(=O)CN(C)S(=O)(=O)c1ccc2c(c1)CCC(=O)N2 under VACV mCherry inh: -13.8%

Further entries.
SMILES	VACV Venus inh	VACV mCherry inh
FC(F)Sc1ccc(NC(=S)N2CCN(c3ccccn3)CC2)cc1	-12.3%	-10.4%
Cc1ccc(C(=O)NNc2ncnc3ccccc23)cc1	-15.6%	i
Cc1ccc(NC(=S)N(CCCN2CCN(C)CC2)Cc2cccs2)cc1	-16.2%	-25.7%
O=C(NCc1cccc(Cl)c1)C1CCCO1 (stereo not drawn)	9.8%	5.7%
Cn1cc(SCC(=O)Nc2ccc3c(c2)OCO3)c2ccccc21	-23.6%	-18.0%
O=C(CSc1nc(=O)[nH]c2c1CCC2)NCc1ccccc1	-10.7%[7.34 µM]	0.0%[7.34 µM]
O=C(c1cc2ccccc2o1)N1CCN(CCOc2ccccc2)CC1	-23.7%	-21.5%
CN(Cc1ccccc1F)C(=O)C(Cc1ccccc1)NC(=O)c1ccccc1 (stereo not drawn)	-0.5%	i
O=C(CN1CCC(Cc2ccccc2)CC1)NC(=O)NCc1ccco1	-13.0%	-15.2%
Cc1cc(=O)n2c(-c3ccc(Cl)cc3)csc2n1	-6.1%[7.34 µM]	-8.3%[7.34 µM]
Oc1ccc(Br)cc1C1C=C(c2ccc3c(c2)OCO3)NC(c2ccc(Br)cc2)N1 (stereo not drawn)	-11.9%	29.9%
CCCCN(CCCC)C(=S)N/N=C/c1c(C)[nH]n(-c2ccccc2)c1=O	-19.8%	?
Cc1ccc(C)n1-c1c(C(=O)NCCC(C)C)sc2ncccc12	-19.6%	-11.3%
CC[C@]1(C(=O)OC)[C@H]2C(=O)N(Cc3ccccc3)C(=O)[C@H]2[C@H]2CN=C(SCc3ccccc3)N21	-20.8%	i
CC(=O)O/N=C(/C)c1ncc(C(F)(F)F)cc1N1CCOCC1	-8.5%	-4.7%
c1ccc(C[n+]2c(-c3ccccc3)csc2Nc2ccccc2)cc1	-7.2%	i
Cn1cc(CN2CCC(C(O)c3cccs3)CC2)c(-c2ccccc2F)n1 (stereo not drawn)	-6.6%	i
COc1ccc(Cl)cc1S(=O)(=O)N1CCCC(C(=O)NCCc2ccccc2)C1 (stereo not drawn)	-27.9%	?
COc1ccc(CCNC(=O)C2CCCN(S(C)(=O)=O)C2)cc1OC (stereo not drawn)	-6.5%	-11.6%
O=C(NCc1ccccc1)Nc1cccn(Cc2ccc(F)cc2)c1=O	-8.1%	-7.6%
CCC/C=C/c1ccc(CN2C(C(C)C)C(=O)N(Cc3cn(CCC4OCCCO4)nn3)CCS2(=O)=O)cc1 (stereo not drawn)	?	i
CNC(=O)C1C2C=CC3(O2)C1C(=O)N(C1CC1)C3C(=O)NCc1ccc(OC)cc1 (stereo not drawn)	16.2%	17.8%
Cc1c(C(=O)N2CCCCC2)sc(NC(=O)C(C)C)c1C#N	-7.9%	-4.2%
COC(=O)CSC1=C(C#N)C(c2ccccc2OC)C(C(=O)OC)C(=O)N1 (stereo not drawn)	-6.3%	-13.7%[1.46 µM]

Molecules shown so far that contain a thiophene ring, fused or not:
SMILES	VACV Venus inh	VACV mCherry inh
CC(C)(C)c1ccc(C(=O)Nc2ccc3c(c2)CCCN3C(=O)c2cccs2)cc1	-5.6%	-28.5%
Cc1ccc(NC(=S)N(CCCN2CCN(C)CC2)Cc2cccs2)cc1	-16.2%	-25.7%
Cc1ccc(C)n1-c1c(C(=O)NCCC(C)C)sc2ncccc12	-19.6%	-11.3%
Cn1cc(CN2CCC(C(O)c3cccs3)CC2)c(-c2ccccc2F)n1 (stereo not drawn)	-6.6%	i
Cc1c(C(=O)N2CCCCC2)sc(NC(=O)C(C)C)c1C#N	-7.9%	-4.2%

(next part)
SMILES	VACV Venus inh	VACV mCherry inh
COc1ccc(C=NCC2COc3ccccc3O2)cc1OC (stereo not drawn)	-8.3%	-17.7%
COc1ccc(S(=O)(=O)N2CCC(C(=O)N3CCCCC3)CC2)cc1	-17.5%	-12.1%
COc1ccc(/C=N/n2cnn(Cc3ccccc3Cl)c2=S)cc1	2.4%	-8.6%
COc1c(O)cccc1O	-11.1%	-14.7%
COc1ccccc1CNC(=O)c1c2c(nc3ccccc13)C(=O)N(C1CCCCC1)C2	-2.2%	-14.7%
CCOC(=O)COc1ccc(F)cc1C(=O)c1ccn2nc(-c3ccc(Cl)cc3)cc2n1	-2.0%	-4.3%
Cn1c(SCC(=O)c2ccccc2)nnc1-c1ccccn1	-14.0%	-21.0%
CC(C)(C)NC(=O)CSc1nc(-c2ccccc2)c(-c2ccccc2)[nH]1	?	?
CCc1c(C)nc2ncnn2c1N1CCC(C(=O)NCc2cccs2)CC1	-16.7%	i
Cc1ccc(C(=O)CSc2nnc(C)s2)cc1	-17.9%	-13.3%
CC(=O)N1CCN(CC(=O)Nc2sccc2C#N)CC1	-2.4%	-2.4%
CC1CN(C(=O)C2CCCC2)C(C)CN1C(=O)C1CCCC1 (stereo not drawn)	-14.4%	i
CCOc1ccc(NC(=O)CSc2nc3[nH]ncc3c(=O)n2-c2ccccc2OC)cc1	-15.3%	-5.7%
C[C@H]1C/C=C/[C@H]2[C@H](O)[C@H](C)[C@@](C)(O)[C@H]3[C@H](Cc4ccccc4)NC(=O)[C@]32[C@H](O)/C=C/[C@](C)(O)C1	-0.6%	-12.1%
COc1cc(/C=C2\SC(=S)N(N3CCOCC3)C2=O)cc(OC)c1OC	-3.7%	-15.0%
CCC12CN3CC(CC)(CN(C1)C31C(=O)N(C)c3ccc(C)cc31)C2=O (stereo not drawn)	-5.2%	-11.9%
Cc1ccc(NC(=O)c2nc[nH]c2C(=O)N2CCC(C)CC2)cc1	-22.4%	i
CCOc1c(OC)cc(C2C(C#N)=C(N)Oc3n[nH]c(-c4ccncc4)c32)cc1OC (stereo not drawn)	-14.9%	·
O=C(COC(=O)/C=C/c1ccccc1)Nc1ccccc1Br	-6.5%	i
CCn1c(C(=O)N2CCC(C(=O)N3CCN(c4ccc(OC)cc4)CC3)CC2)cc2sccc21	-14.5%	-10.6%
COc1ccc(S(=O)(=O)N(C)c2ccc(C(=O)Nc3cccnc3)cc2)cc1OC	-17.8%	-18.2%
COC(=O)C1=C(C(=O)OC)[C@@H]2Nc3ccccc3[C@@]23C[C@@H](C(=O)OC)N(C(=O)c2ccc(Br)cc2)C3=N1	-24.1%	-4.7%
CC(=O)N1c2ccc(S(=O)(=O)CCC(=O)O)cc2CC1C (stereo not drawn)	?	·
CCOc1ccc(NC(=O)c2nc(S(=O)(=O)Cc3ccccc3)ncc2Cl)cc1	-24.5%	-25.1%
CC12CC(=O)C3C(CCC4CC(=O)C=CC43C)C1CCC2=O (stereo not drawn)	-13.1%	i
O=C(NNC(=S)Nc1ccccc1Cl)C1CC1	5.5%	7.0%
CCOc1ccc(N2CC(C(=O)Nc3cccc(C)c3C)CC2=O)cc1 (stereo not drawn)	-13.0%	-17.0%
CC(C)=CC(=O)N1CCCC(N2CCN(c3ccccc3C)CC2)C1 (stereo not drawn)	-9.8%	-2.9%
CCc1nc2c(OCc3cccc(OC)c3)cccn2c1N(C)C(=O)c1ccc(OC)cc1	-13.0%	i
Cn1c(=O)c(C(=O)NNC(=O)c2cccc(Cl)c2)c(O)c2ccccc21	-9.7%	?
CC12CCC(=O)C=C1CCC1C2C(O)CC2(C)C1CCC21OCC1=O (stereo not drawn)	-6.0%	i
O=C(CN1CCSc2ccccc21)N1CCN(c2ccccc2)CC1	-6.5%	-9.2%
CCCNC(=O)C[C@@H]1CC[C@H]2NC[C@H](O)COC[C@@H]2O1	-6.9%	-12.8%
O=C(O)c1ccc(F)c(S(=O)(=O)Nc2ccccc2)c1	-5.1%	-17.3%
O=C(Nc1ccc(C(F)(F)F)cc1)C1CCN(c2cnccn2)CC1	-23.5%&-20.2%	-8.8%
Cc1ccc(/C=N/n2cnc3sc(C)c(C)c3c2=O)o1	-7.3%	i
CC(=O)/C(=N/Nc1ccccc1[N+](=O)[O-])N1CCCc2ccccc21	-17.8%	-11.5%
CC(C)=NN1C(c2nonc2N)=NOC1(C)C	-8.7%	i
CC(C)C[C@H](CO)Nc1nc(Nc2cccc(Cl)c2)c2ncn(C(C)C)c2n1	?	?
O=C(O)CCCC(=O)N1CCc2cc(S(=O)(=O)NCc3ccccc3)ccc21	-7.1%&1.0%	-0.2%&-5.1%
OC1(c2ccccc2)CN(c2ccccc2)C2=[N+]1CCS2 (stereo not drawn)	-11.7%	-3.9%
Cc1ccc(S(=O)(=O)N2CCCc3cc(NC(=O)c4ccc(C(C)(C)C)cc4)ccc32)cc1	-6.0%	-15.5%
CCOc1ccc(CNC(=O)c2ccc(NC(=O)N3CCSc4ncccc43)cc2)cc1	-6.8%	-11.3%
COCCCN1C(=O)C(CC(=O)NCc2cccc3ccccc23)CC(C(=O)N2CCOCC2)=C1C (stereo not drawn)	-1.9%	0.8%
Cc1cc(O)ccc1Nc1cc(-c2cccc(N(C)C)c2)ncn1	-2.6%	13.0%
COC(=O)c1ccc(Cl)c(NC(=O)CN2CCN(C)CC2)c1	-6.0%	-12.5%
CCC(C)NC(=O)CCCc1ccccc1 (stereo not drawn)	13.8%	·
O=C(OCC(=O)N1CCCC1)c1ccc(NS(=O)(=O)c2cccs2)cc1O	-0.4%	-0.3%
O=[N+]([O-])c1ccc(-c2ncc(-c3ccc(Br)cc3)o2)cc1	-6.9%[7.34 µM]	-7.7%[7.34 µM]
CCCc1[nH]nc2c1C(c1cn[nH]c1-c1ccc(F)cc1)C(C#N)=C(N)O2 (stereo not drawn)	?	-24.7%
Cc1nc(NC(=O)C2CC2)sc1C(=O)NC1CCCCC1	7.4%	-10.8%
COc1ccccc1N(CC(=O)N1CCC(C(N)=O)CC1)S(=O)(=O)c1ccccc1	-9.7%	-16.3%
O=C(Cc1ccccc1)Nc1ccc(Br)c(Cl)c1	-13.2%	i
O=C(Nc1cccc(F)c1)N1CCc2nc(NCc3cccc(Oc4ccccc4)c3)ncc2C1	?	-5.5%
COCCCNc1nc2c(-c3ccccc3)nnn2c2ccccc12	-4.3%	5.9%
COc1cc(OC)cc(N2C(=O)N(Cc3ccc(C(C)(C)C)cc3)c3ccccc3S2(=O)=O)c1	-2.7%	9.9%
CCc1cccc(NC(=O)Cn2nc(CC)n3c(cc4cc(C)ccc43)c2=O)c1	-2.0%	-6.3%
O=C(NCc1cccs1)c1ccccc1[N+](=O)[O-]	-8.5%	-14.4%
O=C(CSc1ncccn1)NC(=O)NCc1ccco1	-2.1%	i
COc1ccccc1NC(=O)CCc1nc2sc3c(c2c(=O)[nH]1)CCCC3	9.3%	6.0%
CN(C)CCNC(=O)c1cccc(-c2cnc3c(NC=O)cc(-c4cccc(F)c4)cn23)c1	-13.0%	19.3%
CN(C)N1C(N)=C(C#N)C(c2cccs2)C2=C1CC(C)(C)CC2=O (stereo not drawn)	-0.1%	-1.3%
